TRPV1 PAM: human TRPV1 potentiation. hit rate 0.02% among 320,000. TRPV1-expressing cells, Fluo-8 calcium influx, capsaicin EC20 potentiation; host cell line not named in the record; control for the full effect not named in the record. potentiation, % at 8.33 µM; active means potentiation above 80%; inconclusive means 30% to 80%; inactive means below 30%; also: 0% is about no effect
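Cells expressing TRPV1 were dye-loaded with Fluo-8 and read kinetically: 10 s baseline, 3 min after compound (agonist portion), then 2 min after EC20 capsaicin (allosteric enhancer portion). Calcium-bound dye fluorescence at 480/520 nm.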
CtBP-E1A blk: CtBP/E1A binding inhibition | activity change, % (no concentration beside the values) | AlphaScreen GST-E1A/His-CtBP binding, 1536-well; stronger effect = lower value; control for the full effect not named in the record | hit rate 0.49% among 340,000 | AID 651724; in the data active means activity change below about -65%; inconclusive means about -30% to -65%; inactive means above about -30%; also: % is scaled to controls: 0 for no effect and ±100 for the full control effect; compound concentration not given in the record
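Homogeneous bead-based format: GST-tagged E1A captured on glutathione donor beads, His-tagged CtBP on nickel acceptor beads; compounds precede bead addition by 2 h at 37 °C.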
Sfp PPTase inh: blocks B. subtilis Sfp PPTase activity; Q9F4F7; Biochemical Sfp PPTase activity, qHTS; Potency, µM, for inactives: max response, negative = inhibition, most hits filed as inhibitors; hit rate 3.5% among 310,000; AID 1490; active = well fitted inhibition curve with a large enough effect; inconclusive = small, poorly fitted or top-dose-only effect, or another doubt; inactive = no such curve, though single readings can be large or run the other way;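 also: the enzyme is Sfp with the accession as filed and its product quenches rhodamine fluorescence; potency is read from the fitted curve at half-maximal effect; 0% = enzyme reaction without inhibitor and -100% = no enzyme wells; top concentration of the series not given in the record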
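Step 1, compound plus 15 nM Sfp-PPTase, 15 min, room temperature. Step 2, add rhodamine-CoA (5 uM) and BHQ-2-YbbR (12.5 uM). Step 3, read 525/598 nm fluorescence at 0 and 30 min.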
Six1-Eya2 blk: inhibitors of human Six1/Eya2 interaction; AlphaScreen GST-Six1/His-Eya2 binding, biochemical; stronger effect = lower value; control for the full effect not named in the record; activity change, % (test concentration not listed); hit rate 0.56% among 360,000; AID 651725; in the data active = activity change below about -65%; inconclusive = about -30% to -65%; inactive = above about -30%; also: % is scaled to controls: 0 for no effect and ±100 for the full control effect; compound concentration not given in the record
Target sequence (O00167 whole entry, looked up): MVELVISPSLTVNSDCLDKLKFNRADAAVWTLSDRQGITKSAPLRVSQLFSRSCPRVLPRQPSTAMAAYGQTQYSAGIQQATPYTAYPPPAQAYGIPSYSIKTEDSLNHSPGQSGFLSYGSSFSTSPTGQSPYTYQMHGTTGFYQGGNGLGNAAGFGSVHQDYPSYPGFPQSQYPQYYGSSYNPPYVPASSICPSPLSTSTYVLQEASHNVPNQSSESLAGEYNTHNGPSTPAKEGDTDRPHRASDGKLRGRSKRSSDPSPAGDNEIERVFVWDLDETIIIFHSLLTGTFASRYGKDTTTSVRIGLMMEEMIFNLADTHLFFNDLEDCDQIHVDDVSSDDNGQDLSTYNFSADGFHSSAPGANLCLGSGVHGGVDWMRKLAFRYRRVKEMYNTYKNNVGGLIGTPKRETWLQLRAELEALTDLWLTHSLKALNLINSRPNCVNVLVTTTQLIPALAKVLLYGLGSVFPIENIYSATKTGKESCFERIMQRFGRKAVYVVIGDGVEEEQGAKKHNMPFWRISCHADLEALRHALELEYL
Target sequence (Q15475 whole entry, looked up): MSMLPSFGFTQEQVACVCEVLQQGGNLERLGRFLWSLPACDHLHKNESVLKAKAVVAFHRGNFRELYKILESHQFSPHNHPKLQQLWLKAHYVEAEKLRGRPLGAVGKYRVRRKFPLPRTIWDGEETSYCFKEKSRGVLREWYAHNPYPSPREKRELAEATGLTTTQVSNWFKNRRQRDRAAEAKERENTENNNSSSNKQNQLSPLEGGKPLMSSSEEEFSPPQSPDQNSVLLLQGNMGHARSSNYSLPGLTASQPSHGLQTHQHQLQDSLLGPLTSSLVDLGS
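Compounds are tested against tagged Six1 and Eya2 proteins bridged by glutathione donor and nickel acceptor beads; after a one-hour incubation at 37 °C without light, AlphaScreen emission is recorded.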
D2 potentiator: human D2 receptor positive allosteric modulation; AID 624464; potentiation, % (test concentration not listed); DiscoveRx D2 beta-arrestin cells, luminescence, 90 min; 100% = 57 uM dopamine signal; hit rate 0.23% among 360,000; active = potentiation of 50% or more; inconclusive = 30% to 50%; inactive = 30% or less;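 also: compound concentration not given in the record; tested on top of an EC20 dose of dopamine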
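PathHunter beta-arrestin assay in DiscoveRx D2 cells. Compounds were added with an EC20 of dopamine (50 nM final) for 90 min at 37 deg C. Luminescence was read 1 h after detection reagent, with 57 uM dopamine as the EC100 control.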
PINK1 expr mod: modulators of PINK1 expression. Potency, µM (highest dose often 76.6 µM), for the others: at the top dose activation (PINK1 increase), hits mostly activators. PINK1 immunofluorescence, high-content cytometry, 24 h. AID 624263. hit rate 0.2% among 410,000; active = well fitted activation curve with a large enough effect; inconclusive = small, poorly fitted or top-dose-only effect; inactive = flat fitted curve, though single readings scatter; cell line not stated here;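 also: potency is read from the fitted curve at half-maximal effect; % of control where 0% means no effect; nearly all actives have a fitted effect of over 65% in size; a mitochondrial uncoupler was the plate control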
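Readout is PINK1 immunofluorescence, quantified alongside mitochondrial, cell and nuclear markers by laser-scanning microplate cytometry. Cells from a stable line were exposed to compound titrations (5 concentrations) for 24 hours, with CCCP controls.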
D2 agonist: activates the human D2 dopamine receptor. P14416. DiscoveRx PathHunter D2 beta-arrestin, luminescence, 90 min; 100% = 57 uM dopamine signal. activation, % (concentration not given with the values). hit rate 0.084% among 360,000; in the data active = activation above about 40%; inconclusive = about 15% to 40%; inactive = below about 15%; also: compound concentration not given in the record; the text of the record calls up to 30% inactive
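Agonist mode: compounds alone added to overnight-plated D2 PathHunter cells for 90 min at 37 C, with 57 uM final dopamine (EC100) defining full response. Beta-arrestin recruitment detected by chemiluminescent reagent, read after 1 h at ambient temperature.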
An asterisk follows results filed as active; ? = inconclusive; · = not tested or not shown; & = joins results of further samples; [ ] = dose if it differs, or a comment.

Start of the data: the first 5 entries as a preview:
SMILES	TRPV1 PAM	CtBP-E1A blk	Sfp PPTase inh	Six1-Eya2 blk	D2 potentiator	PINK1 expr mod	D2 agonist
CCOC(=O)COc1ccccc1/C=C1\NC(=O)NC1=O	-2	-1	-3%	2	-1	-1.0%	0.0
O=S(=O)(c1ccc(F)cc1)N1CCN=C1SCc1cccc(F)c1	-3	24	6%	11	-2	1.5%	2.3
CC(NC(=O)c1cc(-c2cccnc2)nc2ccc(Br)cc12)C1CCCO1 (centres undefined)	3	-6	-12%	1	-7	0.5%	-2.4
CC1CCN(C(=O)CCS(=O)(=O)c2cc3c(cc2Cl)NC(=O)CO3)CC1	-19	5	2%	1	-2	-1.2%&-1.5%	-0.3
CN(/N=C/c1cc(Cl)cc(Cl)c1O)c1c(Cl)cccc1[N+](=O)[O-]	-2	-30	7%	0	-5	5.4%	-4.6

Main list, from the start:
SMILES	TRPV1 PAM	CtBP-E1A blk	Sfp PPTase inh	Six1-Eya2 blk	D2 potentiator	PINK1 expr mod	D2 agonist
CCOC(=O)COc1ccccc1/C=C1\NC(=O)NC1=O	-2	-1	-3%	2	-1	-1.0%	0.0
O=S(=O)(c1ccc(F)cc1)N1CCN=C1SCc1cccc(F)c1	-3	24	6%	11	-2	1.5%	2.3
CC(NC(=O)c1cc(-c2cccnc2)nc2ccc(Br)cc12)C1CCCO1 (centres undefined)	3	-6	-12%	1	-7	0.5%	-2.4
CC1CCN(C(=O)CCS(=O)(=O)c2cc3c(cc2Cl)NC(=O)CO3)CC1	-19	5	2%	1	-2	-1.2%&-1.5%	-0.3
CN(/N=C/c1cc(Cl)cc(Cl)c1O)c1c(Cl)cccc1[N+](=O)[O-]	-2	-30	7%	0	-5	5.4%	-4.6
COc1c(CC=C(C)C)c(O)cc2oc(=O)c3c4ccc(O)cc4oc3c12	·	6	·	2	-3	4.7%	?
NC(=O)CSc1nc2cc3c(cc2c(=O)n1CCCC(=O)NCc1ccc2c(c1)OCO2)OCO3	0	2	9%	-3	-10	2.7%	-1.3
COc1ccc(NS(=O)(=O)c2cccc(C(=O)NNC(=O)c3cc(S(N)(=O)=O)ccc3OC)c2)cc1	2	-4	·	-17	2	-0.4%	-2.8
Nc1c(C(=O)C2CC2)sc2nc(-c3cccs3)cc(C(F)(F)F)c12	-3	25	11%	8	-13	?	-6.2
FC(F)(F)c1cc(C(F)(F)F)c2ccc(N3CCN(c4ccccc4)CC3)nc2n1	27	3	17%	1	-1	8.7%	-3.0
Cc1ccc(C(=O)/C=C/NCc2ccc(F)cc2)cc1	4	-5	-7%	4	-27	-0.3%	-0.5
Cn1c(=O)c2c(nc(SCCN3CCOCC3)n2Cc2cccc3ccccc23)n(C)c1=O	0	-11	-2%	-9	-16	-0.9%[38.3 µM]	-2.2
O=c1cc(-c2cccc(Br)c2)oc2cccc(O)c12	18	6	4%	-5	-1	0.2%	-2.0
CC(C)(C)NC(=O)CSc1nnc(-c2ccncc2)o1	?	-14	23%	-5	1	-1.0%	-1.7
CCCCOc1ccc(N(CC(=O)NC2CCCCC2)C(=O)c2snc(C(N)=O)c2N)cc1	4	4	-4%	1	-4	5.8%	-8.2
O=C(O)c1ccccc1C(=O)Nc1ccccc1NC(=O)c1ccccc1C(=O)O	·	5	·	-1	-6	0.4%	0.0
O=C(NCc1cccs1)c1ccc2sc([C@H]3C[C@H](O)[C@@H](CO)O3)nc2c1	·	-9	·	-8	-1	1.7%	-5.1
COc1cccc2cc(C(=O)N3CCN(c4ccc(C)cc4C)CC3)c(=O)oc12	5	2	-4%	0	-4	-1.3%	-5.1
O=C(COC(=O)c1ccc(N2CCOCC2)c([N+](=O)[O-])c1)Nc1ccc2c(c1)OCO2	-12	-8	8%	-12	-14	-1.1%	-0.6
Cc1cc2cc(CN(Cc3ccco3)S(=O)(=O)c3c(C)ccc4nsnc34)c(=O)[nH]c2cc1C	-12	-6	50µM*	-3	4	-34%[inhibitor][38.3 µM]	-3.6
COc1ccc(/C=C2\N=C(C)OC2=O)cc1OC	-1	-4	-2%	5	5	1.0%	-8.4
CCOc1ccc(N(CC(=O)NCc2ccccc2)S(=O)(=O)c2ccc(C)cc2)cc1	2	5	24%	2	-16	6.3%	-4.6
C[C@H]1COc2cc(N3CCC[C@@H]3CO)ccc2S(=O)(=O)N1	·	9	·	13	·	1.4%	·
COc1ccc(OCCCC(=O)Nc2ccc3c(c2)OCO3)cc1	-11	-6	12%	-1	-2	-2.7%[38.3 µM]	0.9
Cc1cc(NC(=O)/C=C/c2cccc(F)c2)n(-c2nc3ccccc3[nH]2)n1	0	18	17%	3	9	5.2%	-0.9
Cc1cc(CNC(=O)C2CCC(=O)N(CCc3cccc(F)c3)C2)on1 (centres undefined)	1	0	11%	-1	0	-0.1%	-2.2
Cc1cccc(S(=O)(=O)Nc2cc(Cl)ccc2N2CCOCC2)c1	·	2	·	4	-4	2.8%	3.1
CN(CC(=O)Nc1ccc(F)cc1)C(=O)C1CCN(S(=O)(=O)c2ccc3c(c2)OCCO3)CC1	-1	7	·	-5	2	1.4%	3.1
COc1ccc(Cl)cc1NC(=O)Cn1c(=O)oc2ccccc21	-6	9	3%	-2	-7	10%	-3.0
CN=c1scc(-c2cc(OC)ccc2OC)n1/N=C/c1c(C)[nH]c2ccccc12	3	-19	?	-19	-18	1.3%	-6.1

Individual results from the results shown:
C[C@H]1COc2cc(N3CCC[C@@H]3CO)ccc2S(=O)(=O)N1 – Six1-Eya2 blk: 13
COc1ccc(/C=C2\N=C(C)OC2=O)cc1OC – Six1-Eya2 blk: 5

(continued)
SMILES	TRPV1 PAM	CtBP-E1A blk	Sfp PPTase inh	Six1-Eya2 blk	D2 potentiator	PINK1 expr mod	D2 agonist
Cc1noc(C)c1C(=O)N1CCC1(C)C(=O)NS(=O)(=O)c1cccc(Cl)c1 (centres undefined)	·	4	·	7	-11	0.4%	-5.0
CCn1nc(NC(=O)COC)c2cc3cccc(C)c3nc21	-5	17	2%	33	3	-2.1%	9.6
COc1ccc(N2CCN(S(=O)(=O)c3ccc(Cl)s3)CC2)cc1	-19	-15	-5%	-4	1	2.8%	-0.7
CCn1c(SCC(=O)N2CCCCC2)nc2c1c(=O)n(C)c(=O)n2C	-1	1	11%	-1	-2	0.3%	-3.0
CC(C)(C)c1ccc(-c2ccc3c(c2)S(=O)(=O)c2ccccc2C3=O)cc1	·	2	·	4	-3	1.3%	-1.4
COc1cc(OC)cc(-c2c(Sc3ccccc3)c3cc(-c4ccc5c(c4)OCCO5)ccc3n2C)c1	·	-7	·	1	·	1.0%	·
COc1ccc2c(=O)c(Oc3ccc(C(=O)O)cc3)c(C(F)(F)F)oc2c1	-2	4	-13%	4	-4	0.1%	-2.8
CCOC(=O)C1(P(=O)(c2ccccc2)c2ccccc2)CCC1	-5	1	19%	-1	-4	0.3%	-0.8
O=C([C@@H]1CC=C[C@@H]2CCN(C3CCCCC3)C(=O)[C@@H]21)N1CCN(c2ccccc2)CC1	·	6	·	10	-8	0.0%	-6.2
O=C(CCCN1C(=O)/C(=C/c2cccs2)SC1=S)Nc1ccccn1	2	-20	?	-9	-1	1.7%	-0.1
Cc1ccc(NC(=O)COC(=O)C2COc3ccccc3O2)cc1 (centres undefined)	-19	0	·	20	0	1.5%	-4.8
Cc1cccc(N(C(=O)Nc2ccccc2)C2=NCC(C)S2)c1 (centres undefined)	-11	-1	2%	4	-11	1.6%	-4.3
O=C(c1ccccc1)N1CCN(C2C3CC4CC(C3)CC2C4)CC1 (centres undefined)	-19	9	-6%	0	5	·	-0.5
N#Cc1ccc(N2C(=O)[C@@H]3C(C(=O)c4ccc5ccccc5n4)=NN[C@@H]3C2=O)cc1	-9	0	-16%	-14	-21	-0.9%	-7.1
COc1ccccc1NC(=O)N1CCC(NC(=O)C(Cc2ccccc2F)NC(C)=O)CC1 (centres undefined)	0	3	7%	8	-7	0.7%	-0.9

Single records, as listed above. Order of values: TRPV1 PAM	CtBP-E1A blk	Sfp PPTase inh	Six1-Eya2 blk	D2 potentiator	PINK1 expr mod	D2 agonist
`O=C(CCCN1C(=O)/C(=C/c2cccs2)SC1=S)Nc1ccccn1` is entered as 2	-20	?	-9	-1	1.7%	-0.1
`Cc1cccc(N(C(=O)Nc2ccccc2)C2=NCC(C)S2)c1` (centres undefined) is entered as -11	-1	2%	4	-11	1.6%	-4.3

Next section:
SMILES	TRPV1 PAM	CtBP-E1A blk	Sfp PPTase inh	Six1-Eya2 blk	D2 potentiator	PINK1 expr mod	D2 agonist
CCN(CC)S(=O)(=O)c1cccc(-c2n[nH]c(=S)n2/N=C/c2ccc(C(=O)OC)cc2)c1	-4	-28	50µM*	?	0	-1.0%	-2.1
COc1ccccc1-c1ccc([C@@H]2C[C@H]3[C@@H](CN2)CON3C)cc1	·	-2	·	2	-3	1.7%	-11
COc1ccccc1-c1coc2c(CN3CCOCC3)c(O)ccc2c1=O	-8	8	15%	-1	0	1.3%	-1.6
O=C(Cn1nc(-c2ccccc2)c2ccccc2c1=O)Nc1cccc(O)c1	-7	16	-11%	-7	3	0.4%	-1.4
CC(C)(C)Nc1c2ccccc2nc2ccccc12	-17	5	-4%	11	-12	5.4%	0.2
CCC(C)[C@H](NC(=O)NC1CCN(Cc2ccccc2)CC1)C(=O)OC (some centres undefined)	-6	3	9%	1	-21	-3.2%[38.3 µM]	-3.4
COc1ccc(S(=O)(=O)N2CCCC(C(=O)NCc3ccc(F)cc3)C2)cc1 (centres undefined)	10	11	9%	-2	-1	-2.0%	1.6
CCN(C(=O)CSc1nc2cc(C(F)(F)F)ccc2n1Cc1ccccc1)C1CCS(=O)(=O)C1 (centres undefined)	11	·	-9%	0	-5	5.2%	3.0
O=C(COC(=O)C1CC(=O)N(c2nc(-c3ccccc3)cs2)C1)c1ccccc1 (centres undefined)	-6	-3	-8%	-1	-17	-1.9%	-0.8
Cc1ccnc(NC(=O)c2cc3cc(F)ccc3s2)c1	-39	-1	-22%	1	-11	0.1%	-1.0
O=C(c1cnn2c(C(F)F)cc(C3CC3)nc12)N1CCCC1	3	4	-3%	-1	-8	5.4%[38.3 µM]	0.6
O=C(c1ccc(OC2CCN(CCc3ccccc3)CC2)cc1)N1CCCC(CCCO)C1 (centres undefined)	-5	-21	23%	2	-36	5.2%	-6.9
O=C1C=C(NC2CCCC2)CC(c2ccccc2)C1 (centres undefined)	-10	·	19%	-1	-4	6.7%	4.0
CSc1nc2sc3c(c2c(=S)[nH]1)CC(C)(C)OC3	4	-2	7%	15	0	1.0%	-4.9

Rows are unselected; overall some 3.7% were active at least once.
